Screening results from PubChem.
Vaccinia inh: blocks a specific stage of Vaccinia orthopoxvirus infection | Vaccinia-infected cells, mCherry/Venus stage reporter fluorescence; active compounds read low; some inactives read as strong as hits | activity change (mCherry), % (concentration not given with the values) | 89,000 compounds, 0.01% hits;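 active = mCherry past -33% and 40 or more points under the early reporter, replicates agreeing; inconclusive = past -33% without that gap or agreement; tested in A549 cells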;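 also: scaled between vehicle wells and reference inhibitor wells; 23 nL library stock went into each well; one replicate is shown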
Vaccinia inh Venus: second read-out of Vaccinia inh, no call of its own (marks repeat the call); activity change (Venus), %; measured here: Venus reporter, other viral stage;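 negative = less Venus signal; first of two replicates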
* hit, by the source's call.

For O=C(C[C@H]1C[C@H]2c3cc(NC(=O)C4CCC4)ccc3O[C@H]2[C@@H](CO)O1)NCc1ccncc1 the results were Vaccinia inh -1 and Vaccinia inh Venus -10.
For COCC#Cc1ccc([C@H]2[C@H](CO)N3C(=O)CN(C(=O)Nc4ccccc4F)C[C@@H]23)cc1 the results were Vaccinia inh 3 and Vaccinia inh Venus -2.
`Cc1noc(C)c1NC(=O)N(C)C[C@H]1OCCCC[C@H](C)Oc2ccc(NS(=O)(=O)c3cccs3)cc2C(=O)N([C@@H](C)CO)C[C@H]1C` gave Vaccinia inh 29 and Vaccinia inh Venus 6.
O=C(N[C@H]1CC[C@H](CCNC(=O)c2ccccc2F)O[C@@H]1CO)c1cnccn1 was read as Vaccinia inh 1 and Vaccinia inh Venus 6.
For C[C@@H]1CN([C@H](C)CO)C(=O)c2cc(NC(=O)Nc3cccc4ccccc34)ccc2O[C@H]1CN(C)Cc1ccccc1 the results were Vaccinia inh inconclusive.
C[C@@H]1CN([C@H](C)CO)C(=O)c2cc(NC(=O)Nc3ccc(C(F)(F)F)cc3)ccc2O[C@H]1CN(C)Cc1ccccc1 was read as Vaccinia inh -13 and Vaccinia inh Venus -8.
For C[C@H](CO)N1C[C@H](C)[C@@H](CN(C)S(=O)(=O)c2ccc(F)cc2)Oc2ccc(NS(C)(=O)=O)cc2C1=O the results were Vaccinia inh -3 and Vaccinia inh Venus 3.
`C[C@H]1CCCCO[C@H](CN(C)C(=O)Nc2ccccc2)[C@@H](C)CN([C@@H](C)CO)C(=O)c2cc(NS(=O)(=O)c3cccs3)ccc2O1` gave Vaccinia inh -17 and Vaccinia inh Venus -15.
Screening COCC#Cc1ccc2c(c1)O[C@@H](CN(C)C(=O)C1CCOCC1)[C@@H](C)CN([C@H](C)CO)S2(=O)=O returned Vaccinia inh 28 and Vaccinia inh Venus 52.
For COc1ccc(-c2ccc3c(c2)[C@@H]2[C@@H](CCN2C(=O)NC2CCCCC2)[C@@H](CO)N3C)cc1 the results were Vaccinia inh inconclusive.
For C[C@@H]1CN([C@@H](C)CO)C(=O)c2cc(NC(=O)Nc3ccccc3)ccc2O[C@@H]1CN(C)CC1CC1 the results were Vaccinia inh -1 and Vaccinia inh Venus 1.
Screening COC(=O)C[C@H]1C[C@H]2c3cc(NS(=O)(=O)c4ccc(F)cc4)ccc3O[C@H]2[C@@H](CO)O1 returned Vaccinia inh 3 and Vaccinia inh Venus 3.
Screening CCCC#Cc1ccc2c(c1)O[C@@H](CN(C)CC1CC1)[C@@H](C)CN([C@@H](C)CO)S2(=O)=O returned Vaccinia inh -31 and Vaccinia inh Venus -21.
For CC(C)NC(=O)N(C)C[C@@H]1Oc2ccc(NS(=O)(=O)c3cccs3)cc2CC(=O)N([C@@H](C)CO)C[C@H]1C the results were Vaccinia inh 10 and Vaccinia inh Venus 9.
Cc1ccc(S(=O)(=O)Nc2ccc3c(c2)CC(=O)N([C@H](C)CO)C[C@@H](C)[C@H](CN(C)C(=O)Nc2ccc4c(c2)OCO4)O3)cc1 was read as Vaccinia inh 8 and Vaccinia inh Venus 5.
O=C(C[C@H]1CC[C@@H]2[C@H](COC[C@@H](O)CN2C(=O)c2ccccn2)O1)N1CCN(c2ccccc2)CC1 was read as Vaccinia inh 4 and Vaccinia inh Venus 4.
Screening C[C@@H]1CCCCO[C@@H](CN(C)C(=O)Nc2ccc3c(c2)OCO3)[C@@H](C)CN([C@H](C)CO)C(=O)c2cc(NS(=O)(=O)c3ccc(Cl)cc3)ccc2O1 returned Vaccinia inh 18 and Vaccinia inh Venus 3.
CN(C)CCCNC(=O)C[C@H]1CC[C@H]2[C@@H](COC[C@@H](O)CN2CC2CC2)O1 was read as Vaccinia inh 3 and Vaccinia inh Venus 0.
COc1ccc2c3c([nH]c2c1)[C@@H](CO)N(Cc1nccs1)CC31CN(C(=O)C2CCC2)C1 was read as Vaccinia inh 15 and Vaccinia inh Venus 24.
For O=C(Cc1ccncc1)N1CCCCN2[C@H](C1)[C@H](c1ccc(C#Cc3ccccc3F)cc1)[C@@H]2CO the results were Vaccinia inh inconclusive.
For C[C@@H]1CN([C@H](C)CO)C(=O)Cc2cc(NC(=O)c3ccncc3)ccc2O[C@H]1CN(C)Cc1ccc(Cl)c(Cl)c1 the results were Vaccinia inh -26 and Vaccinia inh Venus -30.
For O=C1CN(S(=O)(=O)c2ccccc2)C[C@@H]2[C@H](c3ccc(Br)cc3)[C@H](CO)N12 the results were Vaccinia inh 5 and Vaccinia inh Venus 7.
For C[C@H](NC(=O)C[C@H]1CC[C@H](NC(=O)Nc2ccc3c(c2)OCO3)[C@@H](CO)O1)c1ccccc1 the results were Vaccinia inh 1 and Vaccinia inh Venus 0.
Screening Cc1ccccc1S(=O)(=O)N1CCCCN2[C@H](CO)[C@@H](c3ccc(-c4cncnc4)cc3)[C@H]2C1 returned Vaccinia inh 3 and Vaccinia inh Venus -4.
`CCCNC(=O)N1CC(=O)N2[C@H](CO)[C@H](c3ccc(C#CCC4CCCC4)cc3)[C@@H]2C1` gave Vaccinia inh -25 and Vaccinia inh Venus -24.
`Cc1noc(C)c1NC(=O)NCC[C@@H]1CC[C@H](NC(=O)c2ccc(F)cc2)[C@H](CO)O1` gave Vaccinia inh 13 and Vaccinia inh Venus 2.
Screening C[C@@H]1CN([C@@H](C)CO)C(=O)c2cccc(NC(=O)CCCCCC(=O)Nc3ccccc3N)c2O[C@H]1CN(C)Cc1ccc(Cl)c(Cl)c1 returned Vaccinia inh inconclusive.
Screening C[C@@H]1CN([C@@H](C)CO)C(=O)c2c(c3ccccc3n2C)-c2ccccc2CO[C@@H]1CN(C)Cc1ccc(C(F)(F)F)cc1 returned Vaccinia inh inconclusive.
For O=C(C[C@H]1CC[C@@H]2[C@H](COC[C@@H](O)CN2CC2CCCCC2)O1)NCc1ccc(Cl)cc1 the results were Vaccinia inh -11 and Vaccinia inh Venus -8.
`CC(C)C#Cc1ccc([C@H]2[C@H]3CN(C(=O)Nc4ccccc4)CCCCN3[C@H]2CO)cc1` gave Vaccinia inh -30 and Vaccinia inh Venus -28.
For COCC(=O)N(C)C[C@H]1Oc2cc(C#CCN(C)C)ccc2S(=O)(=O)N([C@@H](C)CO)C[C@@H]1C the results were Vaccinia inh 17 and Vaccinia inh Venus 6.
`CN(C)CCCNC(=O)C[C@@H]1CC[C@H]2[C@@H](COc3ccc(NC(=O)NC4CCCC4)cc3C(=O)N2C)O1` gave Vaccinia inh 22 and Vaccinia inh Venus 10.
Screening C[C@@H]1CN([C@@H](C)CO)C(=O)c2cc(N(C)C)ccc2O[C@@H]1CN(C)S(=O)(=O)c1ccc(Cl)cc1 returned Vaccinia inh -6 and Vaccinia inh Venus -9.
C[C@@H]1CN([C@H](C)CO)C(=O)c2cc(-c3ccccc3F)cnc2O[C@H]1CN(C)C(=O)C1CC1 was read as Vaccinia inh 16 and Vaccinia inh Venus 4.
COc1cc(CN2[C@@H]3CNC[C@H]2C3c2ccc(-c3ccc(C#N)cc3)cc2)cc(OC)c1 (stereo partly drawn) was read as Vaccinia inh -16 and Vaccinia inh Venus -12.
C/C=C/c1ccc2c(c1)[C@@H]1[C@@H](CCN1C(=O)C1CCCC1)[C@H](CO)N2 was read as Vaccinia inh 5 and Vaccinia inh Venus -4.

Random excerpt: two records from the list
COc1cc(CN2[C@@H]3CNC[C@H]2C3c2ccc(-c3ccc(C#N)cc3)cc2)cc(OC)c1 (stereo partly drawn) was read as Vaccinia inh -16 and Vaccinia inh Venus -12.
Cc1ccc(S(=O)(=O)Nc2ccc3c(c2)CC(=O)N([C@H](C)CO)C[C@@H](C)[C@H](CN(C)C(=O)Nc2ccc4c(c2)OCO4)O3)cc1 was read as Vaccinia inh 8 and Vaccinia inh Venus 5.

Back to the main list; the seven compounds before the break are reprinted first.
`CC(C)C#Cc1ccc([C@H]2[C@H]3CN(C(=O)Nc4ccccc4)CCCCN3[C@H]2CO)cc1` gave Vaccinia inh -30 and Vaccinia inh Venus -28.
For COCC(=O)N(C)C[C@H]1Oc2cc(C#CCN(C)C)ccc2S(=O)(=O)N([C@@H](C)CO)C[C@@H]1C the results were Vaccinia inh 17 and Vaccinia inh Venus 6.
`CN(C)CCCNC(=O)C[C@@H]1CC[C@H]2[C@@H](COc3ccc(NC(=O)NC4CCCC4)cc3C(=O)N2C)O1` gave Vaccinia inh 22 and Vaccinia inh Venus 10.
Screening C[C@@H]1CN([C@@H](C)CO)C(=O)c2cc(N(C)C)ccc2O[C@@H]1CN(C)S(=O)(=O)c1ccc(Cl)cc1 returned Vaccinia inh -6 and Vaccinia inh Venus -9.
C[C@@H]1CN([C@H](C)CO)C(=O)c2cc(-c3ccccc3F)cnc2O[C@H]1CN(C)C(=O)C1CC1 was read as Vaccinia inh 16 and Vaccinia inh Venus 4.
COc1cc(CN2[C@@H]3CNC[C@H]2C3c2ccc(-c3ccc(C#N)cc3)cc2)cc(OC)c1 (stereo partly drawn) was read as Vaccinia inh -16 and Vaccinia inh Venus -12.
C/C=C/c1ccc2c(c1)[C@@H]1[C@@H](CCN1C(=O)C1CCCC1)[C@H](CO)N2 was read as Vaccinia inh 5 and Vaccinia inh Venus -4.
For COC(=O)C(CC#Cc1ccc2c(c1)[C@]1(C(=O)N2)[C@H](c2ccccc2OCCO)N2[C@H](c3ccccc3)[C@H](c3ccccc3)OC(=O)[C@H]2[C@@H]1C(N)=O)C(=O)OC the results were Vaccinia inh -6 and Vaccinia inh Venus -3.
Screening CN1c2ccc(Br)cc2[C@H]2[C@H](CCN2C(=O)Nc2ccc(F)cc2)[C@@H]1CO returned Vaccinia inh 13 and Vaccinia inh Venus 8.
NC(=O)C1=C[C@H](c2csc3ccccc23)C[C@H](OCc2ccc(CO)cc2)O1 was read as Vaccinia inh 6 and Vaccinia inh Venus 2.
Screening C[C@@H]1CN([C@@H](C)CO)C(=O)c2cc(C#CCN(C)C)cnc2O[C@@H]1CN(C)Cc1ccccc1F returned Vaccinia inh 19 and Vaccinia inh Venus 4.
CN(C)C(=O)c1ccc(-c2ccc3c(c2)[C@@H]2[C@@H](CCN2C(=O)C2CCCC2)[C@H](CO)N3C)cc1 was read as Vaccinia inh inconclusive.
For CC(C)NC(=O)N[C@H]1CC[C@@H](CC(=O)NCCCN(C)C)O[C@H]1CO the results were Vaccinia inh 13 and Vaccinia inh Venus 13.
`C[C@@H]1CN([C@@H](C)CO)S(=O)(=O)c2ccc(C#Cc3ccccc3)cc2O[C@@H]1CN(C)C(=O)Cc1ccccn1` gave Vaccinia inh inconclusive.
For CO[C@@H](CN(C)S(=O)(=O)c1cn(C)cn1)[C@@H](C)CN(C(=O)Nc1ccc(C(F)(F)F)cc1)[C@@H](C)CO the results were Vaccinia inh 9 and Vaccinia inh Venus 12.
Screening C/C=C/c1ccc([C@H]2[C@@H](CO)N(CC3CC3)[C@@H]2CN(C(C)=O)C(C)C)cc1 returned Vaccinia inh -9 and Vaccinia inh Venus -3.
Screening CCCN1[C@@H]2c3ccc(-c4ccncc4)c(=O)n3C[C@@H]2[C@@H](CO)[C@@H]1C(=O)NCCCN1CCOCC1 returned Vaccinia inh 4 and Vaccinia inh Venus 13.
`COc1ccc(C#Cc2ccc3c(c2)[C@]2(C(=O)N3)[C@H](c3ccc(O)cc3)N3[C@H](c4ccccc4)[C@H](c4ccccc4)OC(=O)[C@H]3[C@@H]2C(=O)NC[C@H](O)c2ccccc2)cc1` gave Vaccinia inh -18 and Vaccinia inh Venus -15.
Screening O=C(Nc1cccc(Cl)c1)N[C@@H]1CC[C@H](CCNC(=O)C2CCOCC2)O[C@@H]1CO returned Vaccinia inh 4 and Vaccinia inh Venus 4.
For Cn1cnc(CCNC(=O)C[C@H]2CC[C@H]3[C@@H](COC[C@@H](O)CN3C(=O)Nc3ccc(Cl)cc3)O2)c1 the results were Vaccinia inh 0 and Vaccinia inh Venus -1.
Screening COc1ccc(CN(C)C[C@H]2Oc3ccc(NS(=O)(=O)c4cn(C)cn4)cc3C(=O)N([C@H](C)CO)C[C@@H]2C)cc1 returned Vaccinia inh 18 and Vaccinia inh Venus 5.
`COc1ccccc1NC(=O)N1CCCCN2[C@@H](CO)[C@H](c3ccc(-c4cccc(C#N)c4)cc3)[C@@H]2C1` gave Vaccinia inh inconclusive.
For C[C@H](CO)N1C[C@H](C)[C@H](CN(C)S(C)(=O)=O)OCCCC[C@H](C)Oc2ccc(NC(=O)c3ccccc3)cc2C1=O the results were Vaccinia inh 1 and Vaccinia inh Venus 0.
For COc1cccc(NC(=O)N2[C@H](CO)[C@@H](c3ccccc3)[C@H]2CNCC(C)C)c1 the results were Vaccinia inh inconclusive.
C[C@@H]1CN([C@@H](C)CO)C(=O)Cc2cc(NC(=O)CCC(F)(F)F)ccc2O[C@H]1CN(C)C was read as Vaccinia inh 7 and Vaccinia inh Venus 3.
`COc1ccc(NC(=O)N(C)C[C@H]2Oc3ccc(NS(C)(=O)=O)cc3C(=O)N([C@@H](C)CO)C[C@H]2C)cc1` gave Vaccinia inh 3 and Vaccinia inh Venus 2.
For CO[C@H]1CC[C@H]2CCN(C)C(=O)CCCN(C)C(=O)c3cc(C#N)ccc3OC[C@@H]1O2 the results were Vaccinia inh 10 and Vaccinia inh Venus 3.
For Cc1ccc(S(=O)(=O)Nc2ccc3c(c2)C(=O)N([C@@H](C)CO)C[C@H](C)[C@@H](CN(C)C(=O)Nc2ccc(F)cc2)OCCCC[C@H](C)O3)cc1 the results were Vaccinia inh -21 and Vaccinia inh Venus -16.
`O=C(N[C@@H]1CC[C@H](CCNS(=O)(=O)c2ccc(F)cc2)O[C@H]1CO)C1CC1` gave Vaccinia inh 0 and Vaccinia inh Venus 2.
Screening C[C@@H]1CN([C@@H](C)CO)C(=O)Cc2cc(NS(=O)(=O)c3cccs3)ccc2O[C@H]1CN(C)Cc1ccc2c(c1)OCO2 returned Vaccinia inh inconclusive.
CO[C@H]1CN(C)C(=O)c2ccc(NC(=O)C3CC3)cc2OC[C@@H](C)N(C(=O)CN2CCOCC2)C[C@@H]1C was read as Vaccinia inh 10 and Vaccinia inh Venus 8.
Screening C[C@@H]1CN([C@H](C)CO)C(=O)c2cccc(NC(=O)C3CCCCC3)c2O[C@@H]1CN(C)S(C)(=O)=O returned Vaccinia inh 7 and Vaccinia inh Venus 5.

Only part of the results is shown (hit frequency here may not be typical).
